Compound activity (PubChem BioAssay)
MT1-MMP act inh: MT1-MMP (human) activation inhibition. HT1080 RFP-PRO-GFP cells, GFP/RFP ratio fluorescence, overnight; percent of plate control window, DMSO zero. GFP/RFP ratio change, % at 20 µM. 0.061% of 360,000 active. P50281;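 active = GFP/RFP ratio change of at least 30% with cell ATP level not reduced by more than half and red fluorescence within 50% of control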; note: strong numbers were not always called active
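Assay system – RFP-PRO-GFP reporter HT1080 cells · Compound dosing – single dose of 20 µM compound, 1% DMSO final · Incubation – overnight compound exposure at 37 °C · Measure – GFP/RFP fluorescence ratio · Benchmarks – DMSO wells and RFP-L50D-GFP cells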
CSC inhib: blocks cancer stem cells; 1.1% of 300,000 active; cancer stem cell-like cells viability, luminescence; inhibition, % at 7.5 µM; AID 2717;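 active = mean at 75% or more and at least half the replicates too; tested in HMLE shEcad cells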;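 note: 0% = median of negative and 100% = median of positive control wells; the first replicate is given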
UUG fidelity: modulators of start codon recognition fidelity in yeast; S. cerevisiae UUG-firefly luciferase reporter, luminescence/redox ratio; activity score, % at 18.7 µM; 0.13% of 350,000 active; AID 602363;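 active = replicate mean at a twofold rise or more, about +100% in these data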;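 note: firefly luciferase made from a UUG start codon reports start codon fidelity; reporter light over untreated wells divided by growth signal over untreated wells; some hits fall short of that in this replicate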
PABP FP inh: PABP-poly(A) binding inhibition | AID 2014 | inhibition, % at 35 µM | P11940 | 1% of 290,000 active | PABP-poly(A) RNA binding, fluorescence polarization;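 active = 50% or more with normal probe brightness, or confirmed in later tests; about a fifth of its hits are not listed in these tables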;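 note: calls also rest on retests at 20 µM and on dose response follow-up; controls were probe without protein and protein plus probe with vehicle; some compounds called inactive have numbers as strong as hits; many hits fall short of the cut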
Target sequence (P11940 whole entry, looked up): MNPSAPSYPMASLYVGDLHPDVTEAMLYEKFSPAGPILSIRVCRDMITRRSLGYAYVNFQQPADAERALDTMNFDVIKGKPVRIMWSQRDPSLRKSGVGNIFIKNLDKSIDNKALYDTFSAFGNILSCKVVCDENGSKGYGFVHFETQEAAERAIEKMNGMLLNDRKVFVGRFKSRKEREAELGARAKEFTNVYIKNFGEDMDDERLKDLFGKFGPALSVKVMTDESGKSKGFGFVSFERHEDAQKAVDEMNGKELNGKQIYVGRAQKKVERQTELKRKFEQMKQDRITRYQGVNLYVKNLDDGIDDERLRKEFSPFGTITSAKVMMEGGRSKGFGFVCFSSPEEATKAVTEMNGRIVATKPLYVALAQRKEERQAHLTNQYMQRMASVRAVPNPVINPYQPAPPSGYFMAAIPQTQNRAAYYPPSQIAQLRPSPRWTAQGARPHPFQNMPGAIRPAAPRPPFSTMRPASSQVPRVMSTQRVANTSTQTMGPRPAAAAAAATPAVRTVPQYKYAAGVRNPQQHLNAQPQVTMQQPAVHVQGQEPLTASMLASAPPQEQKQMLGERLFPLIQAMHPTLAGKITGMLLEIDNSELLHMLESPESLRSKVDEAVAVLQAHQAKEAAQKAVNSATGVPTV
Rce1 inh: yeast Ras-converting enzyme inhibition | calls only | yeast membranes, quenched prenylated peptide cleavage fluorescence | AID 2563 | 0.27% of 290,000 active | Q03530;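 active = fall in fluorescence gain of 50% or more versus controls, with final raw signal at or below 3038400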;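 note: plate controls were neutral control wells for no effect and wells lacking membranes for full effect; tested at 10 µM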
HIV Env fusion: HIV envelope-mediated fusion inhibition. HeLa-JRFL Env/CEM21 cell fusion, luciferase. inhibition, % at 12.3 µM. 1.1% of 360,000 active. AID 651610;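 active = mean replicate inhibition score of at least 50 and every replicate individually at or above 50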;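 note: 0% = plate neutral controls and 100% = maraviroc near 300 nM; one replicate is shown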
eIF4H FP inh: inhibitors of RNA binding by human eIF4H. Q15056. eIF4H fluorescence polarization binding assay. inhibition, % at 35 µM. 0.94% of 290,000 active;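 active = 50% or more with normal probe brightness, or confirmed in later tests; about a fifth of its hits are not listed in these tables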;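 note: calls also rest on retests at 20 µM and on dose response follow-up; 0% = protein and probe with vehicle and 100% = probe without protein; strong numbers were not always called active; many hits fall short of the cut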
eIF4H FP inh retest: recorded beside eIF4H FP inh, whose call it bears; inhibition, %; compound at 20 µM; confirmation average;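 mean of two retest wells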
PABP FP inh retest: second read-out of PABP FP inh, no call of its own (marks repeat the call); inhibition, %; compound at 20 µM; confirmation repeats;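 mean of two retest wells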
MT1-MMP act inh RFP: second read-out of MT1-MMP act inh, no call of its own (marks repeat the call); RFP signal change, %; measured here: RFP expression control read;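 0 = vehicle wells; hits needed this value within 50% of zero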
The depositor's hits bear a star; i = inactive; · = not tested or not shown.

SMILES	MT1-MMP act inh	MT1-MMP act inh RFP	CSC inhib	UUG fidelity	PABP FP inh	Rce1 inh	HIV Env fusion	eIF4H FP inh	others
CN(C(=O)COc1ccc(Oc2ccccc2)cc1)C1CCS(=O)(=O)C1 (stereo not drawn)	2.4	1.4	18.5	-3.9	3.3	i	9.1	-5.7
CCCN1C(=O)/C(=N\OCC(=O)Nc2ccc(C(C)C)cc2)c2ccccc21	0.4	-1.3	12.6	-8.5	-5.9	i	5.0	5.2
Cc1ccc(CNC(=O)CCCN2C(=S)NC(C)(C)CC2C)cc1 (stereo not drawn)	2.0	2.3	-12.2	·	-13.2	i	20.5	-5.3
O=C(Nc1ccc2oc(-c3ccncc3)nc2c1)c1cccs1	7.7	-2.9	-5.6	-22.1	0.7	i	·	-3.2
O=C(CCCN1Cc2ccccc2C1)c1ccc(F)cc1	0.1	2.9	4.9	-15.5	3.7	i	·	5.2
Cn1c(CNC(=O)C(Cc2ccccc2)NC(=O)c2ccccc2F)cc(=O)n(C)c1=O (stereo not drawn)	0.8	1.7	-6.1	-18.0	5.3	i	2.0	1.1
Clc1ccccc1/C=N/Nc1cc(N2CCOCC2)ncn1	-0.3	-5.8	-3.0	19.5	2.8	i	-17.5	-4.0
O=C(CSCC(=O)N1CCCCC1)Nc1nc(-c2ccc(Cl)s2)cs1	-2.7	-0.9	-11.2	-15.6	-4.2	i	-2.5	-4.5
Cc1cc(OCC(=O)NN2C(=O)c3ccccc3C2=O)ccc1Cl	-0.8	3.5	-11.1	-13.3	-2.3	i	-1.0	-8.5
C/C(=N\O)C(=O)OC1CC(C)CCC1C(C)C (stereo not drawn)	-2.9	1.0	-2.4	-16.1	-5.2	i	-30.3	-0.3
COc1ccc(N=Nc2cc(C)c(O)c(CN3CCCCC3)c2)cc1	15.5	-5.2	18.2	-1.7	-10.3	i	5.4	-12.0
CCOC(=O)CNC(=O)c1cccnc1	1.1	2.6	11.3	-14.4	10.0	i	·	1.8
Cn1cccc1C(=O)OCC(=O)N1c2ccccc2NC(=O)C1(C)C	-3.3	0.1	2.3	-2.8	-6.8	i	-2.5	2.2
Cc1csc(NC(=O)c2ccccc2[N+](=O)[O-])n1	5.5	5.9	-21.9	-16.8	1.2	i	-29.1	-5.2
Cc1cc(NC(=S)NC(=O)/C=C/c2ccc(S(=O)(=O)N3CCOCC3)cc2)ccc1Br	-16.0	-20.0	35.6	·	-3.2	i	31.6	-8.8
CCC1=NN(C(=O)Cc2ccccc2)C(O)(c2ccncc2)C1 (stereo not drawn)	-0.4	-2.8	-2.6	·	8.5	·	7.1	-13.1
CS(=O)(=O)Nc1cccc(C2=NN(C(=O)c3cccc([N+](=O)[O-])c3)C(c3cccs3)C2)c1 (stereo not drawn)	-2.2	-2.9	7.8	1.7	-2.6	i	-9.6	-4.1
Cc1ccc(OCc2cc(C(=O)NC3CCc4ccccc43)no2)cn1 (stereo not drawn)	-3.7	-22.8	-8.7	2.8	-1.8	i	13.9	-1.5
CN1C(=O)CSc2ccc(NC(=O)N3CCC(N4CCCCC4)CC3)cc21	0.3	3.3	0.3	-33.4	-17.7	·	·	-3.4
O=C(O)CCC(=O)Nc1ccc(OCC2CCCO2)cc1 (stereo not drawn)	-0.5	2.2	-10.1	-11.2	6.4	i	-6.2	2.6
O=C(N/N=C/c1cccnc1)c1ccc2c(c1)OCCO2	2.7	0.1	1.7	-24.3	3.1	i	-16.5	-2.8
CC(C)CC(c1nnnn1C1CCCC1)N1CCN(C(=O)c2ccco2)CC1 (stereo not drawn)	-3.4	2.6	-7.5	25.2	-9.7	i	·	1.4
COc1ccc(Oc2nc(C)nc3c2oc2ccccc23)cc1	2.8	-6.9	4.1	-8.2	-0.2	·	39.9	-6.9
O=C(CCNC(=O)c1ccc([N+](=O)[O-])cc1)Nc1cccc(S(=O)(=O)N2CCCCC2)c1	4.2	-11.5	-13.9	-3.9	-2.7	i	36.0	-12.4
CC(Oc1cccc2cccnc12)C(=O)N/N=C/c1ccccc1 (stereo not drawn)	-1.1	2.8	-1.4	0.6	-4.5	i	-5.2	-9.8
SMILES	MT1-MMP act inh	MT1-MMP act inh RFP	CSC inhib	UUG fidelity	PABP FP inh	Rce1 inh	HIV Env fusion	eIF4H FP inh	others
O=C(O)CNS(=O)(=O)Cc1ccccc1	-1.7	-0.1	-5.9	-14.1	0.6	i	12.3	-2.3
O=C(O)CC(c1ccc(Cl)cc1)N1Cc2ccccc2C1=O (stereo not drawn)	0.0	0.5	-1.8	-0.9	10.6	i	8.6	-10.3
Cc1noc(C)c1CSc1ccc(Br)cc1	-0.4	1.3	3.9	-20.4	-10.6	i	·	0.0
CCN(CC)c1cc(C)c(C#N)c2nc3ccccc3n12	3.0	-7.9	8.1	-0.9	-5.1	i	9.9	0.8
CCc1nc(SCC(=O)NCc2ccco2)c2c3c(sc2n1)CCCC3	7.4	-1.7	29.4	-13.3	14.4	i	i	-6.4
CN(C)S(=O)(=O)N1CCc2ccc(NC(=O)c3ccc(C(F)(F)F)cc3)cc2C1	4.4	-28.5	-11.2	-12.7	0.7	i	23.2	-3.3
CCS(=O)(=O)CCn1c([N+](=O)[O-])cnc1C	1.5	-1.3	-13.6	-14.4	2.9	i	19.0	-6.9
COc1ccc(C(=O)N/C(=C\c2ccc(-c3cccc([N+](=O)[O-])c3)o2)C(=O)NCCCN2CCOCC2)cc1	-0.4	-0.2	·	-7.0	·	·	-18.2	·
O=C(COc1ccc2ccc(=O)oc2c1)N1CCN(c2ccccc2)CC1	-0.8	-1.7	1.8	-4.8	29.2	i	-4.5	-7.5
Cc1cc(C)n(-c2ccc(C(=O)OCC(=O)Nc3ccccc3F)cc2)n1	-2.0	0.7	-6.5	-12.8	·	·	·	·
CCN(CC)S(=O)(=O)c1cccc(C(=O)OCC(=O)c2ccc3c(c2)OCCO3)c1	1.9	-2.1	-11.0	-19.6	58.2	i	-2.5	-4.7	eIF4H FP inh retest=-2.0;PABP FP inh retest=7.3
Cc1cc(/C=N/n2cnnc2)c(C)n1-c1ccc(Cl)cc1Cl	-5.7	-6.1	·	-8.5	-3.4	i	·	2.1
Cc1ccc(-c2csc(NC(=O)c3ccccc3F)c2C(=O)O)cc1	1.6	2.9	12.8	·	30.5	i	-4.7	-4.4
COCCN1C[C@@H](CO)O[C@@H](n2cnc3c(NC4CCC4)ncnc32)C1	0.1	0.7	·	-23.3	·	·	-105.0	·
CCOC(=O)c1cc([N+](=O)[O-])c([N+](=O)[O-])cc1NC(C)=O	-4.8	-0.9	46.3	-39.6	-1.0	i	·	2.0
OC(c1ccccc1)(c1ccccc1)c1nccn1-c1ccccc1	-5.1	-1.7	·	-21.0	·	·	16.7	·
O=C(COc1ccc(S(=O)(=O)NC2CCCCC2)cc1Cl)NCC1CCCO1 (stereo not drawn)	6.0	0.2	-19.2	19.8	6.8	i	·	-0.1
COc1ccc(OC)c(NC(=O)N2CCCC(C)C2)c1 (stereo not drawn)	1.1	-1.2	-19.1	-18.7	7.6	i	4.0	6.2
CN(C)c1ncnc2c1ncn2[C@H]1CN(Cc2ccccc2)C[C@@H](CO)O1	1.7	6.3	·	-0.4	·	·	-10.8	·
CC1CCN(C(=O)CCNS(=O)(=O)c2ccc(Cl)cc2)CC1	-1.5	0.5	-8.4	-10.4	-4.3	i	0.9	-6.1
O=C(NCc1ccccc1)c1onc(CS(=O)(=O)c2ccc(Cl)cc2)c1C(=O)NCc1ccccc1	0.1	2.1	17.8	-7.3	·	i	-32.0	·
CC(C)C(=O)Nc1cccc(-c2csc(-c3ccccc3)n2)c1	-1.6	-2.6	29.4	-14.6	-1.0	i	3.2	-2.9
COc1ccc(/C(O)=C2/C(=O)C(=O)N(c3nc(C)c(C)s3)C2c2ccco2)cc1 (stereo not drawn)	2.5	4.5	-7.8	-5.5	36.5	i	·	-0.5
O=C1C2CC=CCC2C(=O)N1c1ccc(Cc2ccncc2)cc1 (stereo not drawn)	-0.6	-16.4	5.5	-20.9	3.9	i	·	3.0
O=c1ccnc(S/C=C/c2ccccc2)[nH]1	9.6	1.6	-10.0	-28.3	-2.5	i	·	3.9

Two entries picked at random from the list so far:
SMILES	MT1-MMP act inh	MT1-MMP act inh RFP	CSC inhib	UUG fidelity	PABP FP inh	Rce1 inh	HIV Env fusion	eIF4H FP inh	others
CCOC(=O)c1cc([N+](=O)[O-])c([N+](=O)[O-])cc1NC(C)=O	-4.8	-0.9	46.3	-39.6	-1.0	i	·	2.0
Cc1cc(C)n(-c2ccc(C(=O)OCC(=O)Nc3ccccc3F)cc2)n1	-2.0	0.7	-6.5	-12.8	·	·	·	·

The listing continues.
SMILES	MT1-MMP act inh	MT1-MMP act inh RFP	CSC inhib	UUG fidelity	PABP FP inh	Rce1 inh	HIV Env fusion	eIF4H FP inh	others
O=C(CNC(=O)c1cccc(Br)c1)N/N=C/c1cn[nH]c1-c1ccccc1	-2.6	-2.5	1.0	·	2.3	·	6.1	-4.5
Cc1nc(-c2cccc(NS(=O)(=O)c3ccc4ccccc4c3)c2)cs1	1.3	-1.0	-20.2	-8.2	1.7	i	-30.0	-12.5
O=C(Nc1ccc(Cl)c(C(F)(F)F)c1)[C@@H]1CC=C[C@@H]2CCN(Cc3ccc(Cl)c(Cl)c3)C(=O)[C@@H]21	1.8	-6.1	35.1	-7.1	·	i	84.2*	·
CCOC(=O)c1sc2ncn(CC(=O)NCC3CCCO3)c(=O)c2c1C (stereo not drawn)	-6.8	-6.6	-6.0	-3.0	-10.9	i	·	-7.4
COc1ccc(CN=CC2=C(O)CNC2=O)cc1	6.0	6.9	-7.2	-0.9	8.9	i	·	-3.6
Nc1nc(SCC(=O)NC2CCCC2)[nH]c(=O)c1NC(=O)c1cccs1	-5.2	-1.3	-9.9	-10.1	-5.2	i	15.3	-10.0
O=C(/C=C/[C@H]1O[C@@H](n2ccc(=O)[nH]c2=O)[C@H](O)[C@@H]1O)NCCCc1ccccc1	1.4	1.8	·	-4.1	·	·	16.1	·
Cc1onc(-c2c(Cl)cccc2Cl)c1C(=O)N1C=CC(C(F)(F)F)=NCC1	-2.7	-1.3	2.3	12.0	-11.7	i	9.2	-5.9
O=C(O)CCNS(=O)(=O)c1ccccc1C(F)(F)F	0.3	1.5	-3.9	·	-12.6	i	-2.8	-2.5
O=C(Nc1ccc(Oc2ccc(NC(=O)C3CCCO3)cc2)cc1)C1CCCO1 (stereo not drawn)	2.7	4.2	-11.3	-9.2	9.0	·	·	-8.5
O=C(Cc1ccccc1[N+](=O)[O-])OCC(=O)c1ccccc1Br	1.4	0.0	-14.5	-7.9	·	·	-7.2	·

Structural class: the compounds so far with a thiophene ring, fused or not.
SMILES	MT1-MMP act inh	MT1-MMP act inh RFP	CSC inhib	UUG fidelity	PABP FP inh	Rce1 inh	HIV Env fusion	eIF4H FP inh	others
O=C(Nc1ccc2oc(-c3ccncc3)nc2c1)c1cccs1	7.7	-2.9	-5.6	-22.1	0.7	i	·	-3.2
O=C(CSCC(=O)N1CCCCC1)Nc1nc(-c2ccc(Cl)s2)cs1	-2.7	-0.9	-11.2	-15.6	-4.2	i	-2.5	-4.5
CS(=O)(=O)Nc1cccc(C2=NN(C(=O)c3cccc([N+](=O)[O-])c3)C(c3cccs3)C2)c1 (stereo not drawn)	-2.2	-2.9	7.8	1.7	-2.6	i	-9.6	-4.1
CCc1nc(SCC(=O)NCc2ccco2)c2c3c(sc2n1)CCCC3	7.4	-1.7	29.4	-13.3	14.4	i	i	-6.4
Cc1ccc(-c2csc(NC(=O)c3ccccc3F)c2C(=O)O)cc1	1.6	2.9	12.8	·	30.5	i	-4.7	-4.4
CCOC(=O)c1sc2ncn(CC(=O)NCC3CCCO3)c(=O)c2c1C (stereo not drawn)	-6.8	-6.6	-6.0	-3.0	-10.9	i	·	-7.4
Nc1nc(SCC(=O)NC2CCCC2)[nH]c(=O)c1NC(=O)c1cccs1	-5.2	-1.3	-9.9	-10.1	-5.2	i	15.3	-10.0

The list is partial (hit frequency here may not be typical).
